NS1 function inh: influenza NS1 inhibition; S. cerevisiae slowed by influenza A NS1, growth recovery by OD600; Potency, µM (titrated, usually from 46.1 µM), for inactives: top-dose activity, positive = more growth; hit rate 0.4% among 270,000; AID 2326; active means well fitted rising curve with a large enough effect; inconclusive means small, poorly fitted or top-dose-only effect; inactive means no such curve, though single readings can be large or run the other way; note: nearly all actives have a fitted effect of over 50% in size
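Growth recovery, yeast-based: influenza A NS1 expressed in S. cerevisiae causes slow growth, and suppressors are detected by OD600. The parent strain without NS1 is used as positive control.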
SARS PLP yeast: inhibitors of SARS-CoV papain-like protease in yeast; Potency, µM (top dose mostly 32.9 µM), for the others: at the highest dose activity, positive = growth rescue; S. cerevisiae expressing SARS-CoV PLpro, growth rescue; control for the full effect not named in the record; hit rate 0.19% among 330,000; active means well fitted rising curve with a large enough effect; inconclusive means small, poorly fitted or top-dose-only effect; inactive means no such curve, though single readings can be large or run the other way; note: 0% is about no effect; nearly all actives have a fitted effect of over 55% in size; growth read by luminescence after 48 h
Cruzain Triton: inhibitors of Trypanosoma cruzi cruzain with detergent; purified cruzain, Z-FR-AMC fluorescence, 0.01% Triton; hit rate 0.43% among 200,000; P25779; AID 1478; Potency, µM, inactives show max response, negative = inhibition, hits mostly inhibitors;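 note: plate controls were neutral wells for no effect and buffer without enzyme for full effect; nearly all actives have a fitted effect of over 40% in size; top concentration of the series not given in the record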
Target sequence (P25779 123-467 limits assumed): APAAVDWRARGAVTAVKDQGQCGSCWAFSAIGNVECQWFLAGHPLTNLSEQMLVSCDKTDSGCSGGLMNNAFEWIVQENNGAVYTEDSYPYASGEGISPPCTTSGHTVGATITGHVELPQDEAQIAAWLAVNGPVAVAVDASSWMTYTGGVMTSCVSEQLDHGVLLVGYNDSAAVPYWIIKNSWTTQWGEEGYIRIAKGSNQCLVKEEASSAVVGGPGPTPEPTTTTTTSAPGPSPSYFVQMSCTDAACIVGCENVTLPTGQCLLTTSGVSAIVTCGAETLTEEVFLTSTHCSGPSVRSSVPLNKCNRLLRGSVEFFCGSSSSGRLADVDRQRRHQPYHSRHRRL
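Z-FR-AMC hydrolysis (2 uM substrate) by cruzain (1.5 nM) monitored kinetically at ex 360/em 450 nm after 15 min room-temperature compound exposure; 0.01% Triton X-100, pH 5.5, 5 mM DTT.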
Lassa entry inh: inhibitors of Lassa virus binding or cell entry | hit rate 1.2% among 300,000 | Potency, µM (doses to about 37.9 µM), inactives show at the highest dose activity change, negative = inhibition, hits mostly inhibitors | Lassa virus pseudotype entry inhibition, cell reporter; control for the full effect not named in the record; active means well fitted inhibition curve with a large enough effect; inconclusive means small, poorly fitted or top-dose-only effect, or effect the other way; inactive means flat fitted curve, though single readings scatter; tested in HEK293 cells; note: % is set by controls: 0 for no effect and ±100 for the full control effect; nearly all actives have a fitted effect of over 50% in size; luciferase read-out
Cruzain inh noDet: inhibitors of Trypanosoma cruzi cruzain without detergent. P25779. purified cruzain, Z-FR-AMC fluorescence, no detergent. Potency, µM, for inactives: max response, negative = inhibition, hits mostly inhibitors. hit rate 2.3% among 200,000;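 note: plate controls were enzyme without inhibitor for no effect and buffer without enzyme for full effect; nearly all actives have a fitted effect of over 40% in size; top concentration of the series not given in the record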
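Purified cruzain at 1.5 nM, pre-incubated 15 min with compound at room temperature in 100 mM sodium acetate pH 5.5, 5 mM DTT, 0.00005% Triton X-100. Reaction started with 2 uM Z-FR-AMC; AMC fluorescence increase over 60 s gives rate.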
Marburg entry inh: inhibitors of Marburg virus binding or cell entry. Marburg virus pseudotyped entry inhibition, cell reporter; control for the full effect not named in the record; about a third of the inactives were read at about 46 µM. AID 540276. Potency, µM (titrated, usually from 37.8 µM), without a hit: at the highest dose activity change, negative = inhibition, actives largely listed as inhibitors. hit rate 1.8% among 300,000; active = well fitted inhibition curve with a large enough effect; inconclusive = small, poorly fitted or top-dose-only effect, or effect the other way; inactive = flat fitted curve, though single readings scatter; tested in HEK293 cells; about a fifth of its hits are not listed in these tables; note: % is set by controls: 0 for no effect and ±100 for the full control effect; luciferase read-out
StopGo reporter: lowers the luciferase signal of an FMDV 2A StopGo reporter; Potency, µM (series often up to 57.9 µM), for the others: at the highest dose signal change, negative = less light; human cells with a luciferase reporter of 2A StopGo recoding; control for the full effect not named in the record; hit rate 1.2% among 410,000; active = well fitted falling curve with a large enough effect; inconclusive = small, poorly fitted or top-dose-only effect; inactive = no such curve, though single readings can be large or run the other way; tested in HEK293T cells; note: % is set by controls: 0 for no effect and ±100 for the full control effect; nearly all actives have a fitted effect of over 45% in size; luciferase light after 4 h
RE007 growth inh: less growth of the S. pombe RE007 Vpr strain | hit rate 0.21% among 360,000 | S. pombe RE007 Vpr strain, BacTiter-Glo ATP luminescence, 24 h; control for the full effect not named in the record | Potency, µM (titrated, usually from 92.2 µM), for the others: at the highest dose activity change, negative = less growth; active = well fitted falling curve with a large enough effect; inconclusive = small, poorly fitted or top-dose-only effect; inactive = no such curve, though single readings can be large or run the other way;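 note: % is set by controls: 0 for no effect and ±100 for the full control effect; nearly all actives have a fitted effect of over 50% in size; the assay follows cell death caused by Vpr and the record does not say whether a fall means rescue or toxicity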
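Fission yeast strain RE007, carrying one chromosomally integrated HIV-1 vpr copy, was seeded at OD 0.01 in PMG+AL medium with 23 nL pinned compound. After 24 h at 30 °C and 99% humidity, viability was read by BacTiter-Glo luminescence.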
Numbers without * were called inactive; u = inconclusive; x = not tested or not shown; & = joins results of further samples; [ ] = dose if it differs, or a comment. Unless noted, calls come from the whole dose curve; as a rule, active = well fitted curve in the direction sought with a large enough effect; inconclusive = small, poorly fitted or top-dose-only effect, or another doubt; inactive = no such curve, though single readings can be large; an effect the other way counts as inactive or inconclusive. Potency is the fitted concentration of half-maximal effect.

SMILES	NS1 function inh	SARS PLP yeast	Cruzain Triton	Lassa entry inh	Cruzain inh noDet	Marburg entry inh	StopGo reporter	RE007 growth inh
CCOC(=O)c1c(NC(=O)C2CCCO2)sc(C(N)=O)c1C (stereo unspecified)	10%	7%	-2.8%	-14%	-6%	17%	-23%	-25%
CC(=NCCc1ccccc1)C1=C(O)CCC1=O	6%	3%	1.1%	-1%	-9%	-3%	25%	17%
COc1cc(NC(=O)CN2C(=O)NC(c3ccccc3)(c3ccccc3)C2=O)c(C)cc1[N+](=O)[O-]	u	25%	-5.7%	u	u	u	u	-3%
NC(=O)c1ccc(NC(=O)COC(=O)CCCOc2ccccc2)cc1	x	1%	x	0%	x	u	-2%	2%
CCn1ccc(C(=O)NC2=C(C#N)CCC2)n1	-10%	-5%	2.0%	15%	-4%	4%	-10%	0%
O=C(OCc1cc(=O)n2c(n1)sc1ccccc12)c1cccc(O)c1	21%	-20%	-16%	u	-29%	u	4%	-1%
O=C(O)C1C(C(=O)O)C2(Cl)C(Cl)=C(Cl)C1(Cl)C2(Cl)Cl (stereo unspecified)	x	-1%	-4.2%	x	-4%	x	0%	0%
CCC(NC(=O)c1ccccc1NC(=O)c1ccccc1)C(=O)O (stereo unspecified)	u	-1%	1.3%	1%	5%	10%	x	14%
CC(C)(C)c1cc(NS(=O)(=O)c2ccc3c(c2)OCCO3)on1	-31%	-16%	-2.8%	11%	5%	2%	68%[activator]	-4%
C[C@H](NC(=O)c1ccccc1)C(=O)N1CCC2(CC1)NCCc1[nH]cnc12	0%	-2%	x	10%[46.1 µM]	x	15%[46.1 µM]	-7%	16%
CCOC(=O)CNc1nc(Oc2ccc(=O)n(C)n2)nc(N(CC)CC)n1	1%	-1%	0.8%	-6%	7%	-2%	0%&-18%	4%
COc1ccc(CNC(=O)CN2C(=O)CSc3ccc(S(=O)(=O)N4CCCC4)cc32)cc1	x	x	-1.1%	2%[46.1 µM]	-9%	x	2%	x
Cc1ccc(Cl)cc1N(C)C(=O)Cn1ncc2c([nH]c3ccccc32)c1=O	7%	5%	x	x	x	x	-4%	3%
CCOc1cc(C(=O)Nc2ccc(S(=O)(=O)N3CCOCC3)cc2)cc(OCC)c1OCC	-10%	3%	2.9%	15%	6%	2%&2%	-4%	9%
CCC(CC)NC(=O)c1oc2ccccc2c1COc1ccccc1	15%	26%	-6.9%	-23%	1%	u	-29%	4%
CN(C)S(=O)(=O)c1cccc(NC(=O)c2ccc(COc3ccccc3)cc2)c1	-6%	-6%	x	u	x	8.9µM*	25µM*	11%
COc1ccc(CNC(=O)c2ccc3c(c2)nc2n3CCC(C)C2)c(OC)c1 (stereo unspecified)	x	x	2.7%	1%[46.1 µM]	-7%	x	21%	x
CCOC(=O)N1CCc2c(sc3c2c(=O)n(-c2ccc(CC)cc2)c(=O)n3CC(=O)Nc2ccc(C)cc2)C1	x	x	-2.3%	-22%[46.1 µM]	14%	-5%[46.1 µM]	-2%	x
CCN(CC)C(c1ccc(C)cc1)c1nnnn1C1CCCCC1 (stereo unspecified)	-15%	-4%	0.9%	24%	-7%	-18%	-19%	11%
Cc1cc(C(=O)N/N=C2\CC(=O)CC(C)(C)C2)n[nH]1	12%	4%	7.5%	21%	-5%	0%	-4%	4%
O=C(CCN1CCC(c2ccccc2)C1)c1cccs1 (stereo unspecified)	-32%	-2%	-0.5%	u	u	u	11%	-9%
COc1ccc(OC)c(C2=NOC(C(=O)NCc3ccco3)C2)c1 (stereo unspecified)	-1%	7%	0.4%	-25%	7%	-13%	7%	9%
Nc1nc(OCC(F)(F)F)cc(Oc2ccccc2F)n1	-11%	0%	-9.0%	3%	0%	6%	20%	-8%
O=C(Nc1ncccn1)c1cc([N+](=O)[O-])cc([N+](=O)[O-])c1	10%	-19%	1.5%	0%	-3%	-10%	-14%	4%
CCOc1ccccc1CN1CCN(S(C)(=O)=O)CC1	-3%	5%	1.1%	-9%	-10%	-7%	x	14%
Cc1ccc(S(=O)(=O)N/N=C\c2cn(-c3ccccc3)nc2-c2ccccc2)cc1	4%	1%	4.6%	19%	u	-27%	x	-6%
Cc1sc2nc(CC(N)=O)[nH]c(=O)c2c1-c1ccccc1	2%	1%	-2.8%	u	5%	20%	-10%	5%
CCCc1cc(Nc2c(C)n(C)n(-c3ccccc3)c2=O)n2c(nc3ccccc32)c1C#N	u	17%	-1.9%	4%	15%	17%&17%	24%	-3%
O=C(COC(=O)c1cccc(S(=O)(=O)N2CCOCC2)c1)NCc1ccc2c(c1)OCO2	x	10%	x	-7%[46.1 µM]	x	4%[46.1 µM]	32%[activator]	5%
COc1ccc(NC(=O)N(Cc2ccc(C)cc2)Cc2cccnc2)c(OC)c1	-5%	4%	1.4%	x	4%	-5%	u	-2%
COc1ccc(NC(=S)NC(=O)c2csnn2)cc1	8%	0%	x	0%	x	-24%[46.1 µM]	29%	-13%
COc1ccc(C)cc1NC(=O)CN1C(=O)COc2ccc(S(=O)(=O)N3CCC(C)CC3)cc21	3%	-1%	-2.8%	u	3%	u	-11%&-2%	-2%
CN1CCN(S(=O)(=O)c2ccc(N)cc2)CC1	-4%	-8%	-1.5%	x	-14%	x	-4%	-5%
Cc1cccc(OCc2nnc(SCC(=O)c3ccccc3)o2)c1	-48%	1%	-4.7%	-20%	1%	u	-3%	-22%
CCN(CC)c1nc(C(F)(F)F)nc2c1nnn2Cc1ccccc1	-10%	-3%	x	x	x	x	-8%	2%
COc1ccc(OC)c(CCNC(=O)c2cc3cccc4c3n2CCS4)c1	x	x	-10%	-25%[46.1 µM]	7%	x	4.5µM*	x
Cc1ccc(C2C(=O)N(C3CCCC3)CC(=O)N2CC2COc3ccccc3O2)cc1 (stereo unspecified)	-40%	-4%	-1.3%	-20%	2%	-8%	4%	-3%
CC(=O)N1CCCc2cc(S(=O)(=O)N3CCCC(C(=O)Nc4ccccc4C)C3)ccc21 (stereo unspecified)	9%	6%	x	x	x	x	0%	-6%
COc1ccccc1C(=O)NCCCNC(=O)c1cnccn1	-2%	-2%	x	-2%[46.1 µM]	x	4%[46.1 µM]	-4%	1%
CCOC(=O)c1c(NC(=O)C(C)Sc2cccc[n+]2[O-])sc2c1CCN(Cc1ccccc1)C2 (stereo unspecified)	1%	10%	-12%	u	-20%	u	-26%	-4%
Cn1ncc(Br)c1C(=O)N/N=C/c1cccc(OC2CSC2)c1	-11%	11%	-10%	16%	3%	-4%	-22%	-18%
CSc1cccc(NC(=O)c2cnn(-c3ccc(F)cc3)c2-n2cccc2)c1	x	x	-7.9%	u	-14%	x	u	x
O=C(O)C1CCCN(S(=O)(=O)c2ccc(F)cc2)C1 (stereo unspecified)	4%	7%	1.9%	11%	2%	-4%	14%	12%
CCS(=O)(=O)c1ccc(S(=O)(=O)CC)s1	-8%	2%	2.7%	15%	-16%	27%	-7%	-15%
COc1ccc(N2C(=O)CC(NCc3ccncc3)C2=O)cc1 (stereo unspecified)	7%	-14%	3.0%	0%	13%	-1%	14%	7%
COC(=O)CN(c1ccc2c(c1)OCO2)S(=O)(=O)c1c(C)[nH]c(=O)[nH]c1=O	3%	21%	x	7%[46.1 µM]	x	-5%[46.1 µM]	19%	4%
COc1cccc(-c2nn3c(-c4ccco4)nnc3s2)c1	10%	0%	2.5%	-21%	-17%	u	32%[activator]	5%[3.69 µM]
Cc1onc(-c2c(F)cccc2Cl)c1C(=O)N1CCOC12CCCCC2	-6%	-4%	x	14%	x	-8%[46.1 µM]	-6%	-1%
CCOC(=O)c1oc2cc(O)ccc2c(=O)c1-c1csc(C)n1	-2%	0%	-0.7%	-4%	-14%	8%	0%	5%
NC(=O)c1cccc(-c2cccc(OC(=O)NC3CCCCC3)c2)c1	9%	4%	x	3%	x	u	-7%	2%
O=[N+]([O-])c1cc(C(F)(F)F)cc([N+](=O)[O-])c1NCCCN1CCOCC1	0%	0%	x	-1%	x	-7%[46.1 µM]	-15%	-1%
COc1ccc2c(c1OC)C(=O)N1N=C(c3ccc(F)cc3)CC21 (stereo unspecified)	-4%	0%	x	x	x	x	4%	16%
O=C(Nc1cccc([N+](=O)[O-])c1)N1CCCc2ccccc21	-10%	-2%	x	10%[46.1 µM]	x	0%[46.1 µM]	-17%	8%
O=C(NCC1CCCN1S(=O)(=O)c1cccs1)C(=O)Nc1ccccc1Cl (stereo unspecified)	x	0%	x	-1%	x	12%	5%	-12%
O=C(CSc1cn(CC(=O)N2CCCCCC2)c2ccccc12)NCC1CCCO1 (stereo unspecified)	x	-7%	x	x	x	-14%[46.1 µM]	-9%	-2%
CCC(C)NC(=O)Cn1cc(S(=O)(=O)N2CCCC2)c(S(=O)(=O)N2CCCC2)c1 (stereo unspecified)	-3%	1%	x	8%[46.1 µM]	x	11%[46.1 µM]	12%	16%
O=C(COc1ccc(Br)cc1)NCCN1CCCC1	3%	4%	x	x	x	x	-24%	10%
COc1ccccc1CNC(=O)c1cnc2sc(N3CCCCC3)nn2c1=O	x	x	-1.2%	-11%[46.1 µM]	0%	x	-22%	x
CC(C(=O)NCC1CCCCC1)N1CCN(S(=O)(=O)c2cccs2)CC1 (stereo unspecified)	x	0%	x	u	x	-7%	-30%	-12%
CC(=N/O)/C(=N\O)c1ccc(C)o1	0%	12%	-1.6%	-3%	4%	-1%[46.1 µM]	6%	0%
C=Cn1ccnc1P(=S)(c1cc(N(CC)CC)ns1)c1nccn1C=C	-7%	-2%	-1.5%	-28%	u	u	x	10%
COc1ccc(Cl)cc1N(C(=O)c1ccco1)C(C(=O)NC1CCCC1)c1cccnc1 (stereo unspecified)	-5%	0%	x	-1%	x	-1%[46.1 µM]	-25%	34%

Screening results (PubChem)
